# RGS16-Gao – RGS16-Galphao interaction regulator (human); O15492+P09471; bead-based flow cytometry RGS16-Galphao binding, fluorescence; actives lie on both sides; binding response (% of control), % at 10 µM; 220,000 compounds, 0.38% hits; AID 1441;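 active = below 25% or above 175%, edge rows of some plates excepted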;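 note: Galphao activated by GDP with aluminum fluoride before binding; 100% = wells without compound and 0% = beads without RGS; some results beyond the cut were filed as inactive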
# PKD1 inh – PKD1 (human) kinase inhibition. Q15139. PKD1 kinase fluorescence polarization assay. inhibition, %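 (about 10 µM by stock and volumes)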. 200,000 compounds, 0.056% hits;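 active = inhibition of 50% or more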;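 note: controls were vehicle for no effect and a reference inhibitor for full effect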
# Target sequence (Q15139 whole entry, looked up): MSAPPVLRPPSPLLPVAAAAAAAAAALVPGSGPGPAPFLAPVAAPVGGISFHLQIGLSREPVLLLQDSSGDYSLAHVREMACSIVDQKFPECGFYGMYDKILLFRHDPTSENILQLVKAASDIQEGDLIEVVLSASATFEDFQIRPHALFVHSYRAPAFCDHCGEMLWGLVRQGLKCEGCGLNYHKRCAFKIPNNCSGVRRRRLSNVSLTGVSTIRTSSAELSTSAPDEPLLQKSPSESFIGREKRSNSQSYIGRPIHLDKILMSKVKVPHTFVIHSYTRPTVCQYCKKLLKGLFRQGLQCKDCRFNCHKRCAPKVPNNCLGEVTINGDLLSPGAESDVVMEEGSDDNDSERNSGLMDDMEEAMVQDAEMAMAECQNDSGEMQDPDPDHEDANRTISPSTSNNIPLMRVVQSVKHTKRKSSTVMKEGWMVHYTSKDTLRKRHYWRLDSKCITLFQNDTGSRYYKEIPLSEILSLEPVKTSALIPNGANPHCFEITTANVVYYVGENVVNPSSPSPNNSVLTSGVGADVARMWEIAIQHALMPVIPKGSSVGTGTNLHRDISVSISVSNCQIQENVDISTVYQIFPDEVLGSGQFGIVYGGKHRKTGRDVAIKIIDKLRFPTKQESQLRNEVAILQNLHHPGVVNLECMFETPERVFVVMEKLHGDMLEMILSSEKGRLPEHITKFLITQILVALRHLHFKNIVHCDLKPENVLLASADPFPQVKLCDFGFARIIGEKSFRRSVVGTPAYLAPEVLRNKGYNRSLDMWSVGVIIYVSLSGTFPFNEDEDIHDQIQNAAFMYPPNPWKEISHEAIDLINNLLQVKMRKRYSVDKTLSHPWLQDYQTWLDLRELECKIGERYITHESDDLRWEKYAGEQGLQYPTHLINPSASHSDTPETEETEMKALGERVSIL
# Insulin prom inh – TRM-6 insulin promoter activity inhibition. TRM-6 cells (human fetal islet line), insulin promoter-eGFP reporter, imaging; reporter expression induced with tamoxifen. AID 1273. inhibition, % at 2 µM. 130,000 compounds, 0.9% hits;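 active = inhibition above the mean plus 3 SD, with well images judged a real hit on visual review, cut at about 60% in these data, passing the limit was not always enough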
# HSV augment – HSV replication enhancement; 220,000 compounds, 0.005% hits; HSV replication augmentation in cells, fold increase; AID 1956; maximum fold increase;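 active = peak rise of 1.5-fold or more in the series; tested in PC3 cells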;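 note: first round at 10 µM; read as green reporter fluorescence; hits show the peak of a series up to 25 µM; 1 = signal of infected wells without compound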
# GALR2 agonist – activates the human galanin receptor 2. O43603. GALR2-expressing cells, agonist activation read-out. activation, %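 (tested at 5 µM)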. 140,000 compounds, 0.48% hits. AID 803;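 active = above mean plus 3 SD of all compounds, about 5% in these data, not always enough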;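 note: 0% = vehicle buffer wells and 100% = reference agonist at full effect; tested in CHO reporter cells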
# Insulin prom inh cell count – also measured in Insulin prom inh; calls as there; normalized cell count, %; measured here: cell count, toxicity; reference of the scale not given here;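 cells exposed to compound for 48 h; stained nuclei by imaging scaled within each plate; lower means fewer cells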
# HSV augment primary fold – further read-out of HSV augment, marked with its call; fold increase; compound at 10 µM; measured here: primary screen fold increase 10 uM; tested in PC3 cells;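 GFP signal in the first replicate; 1 = infected wells without compound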
# * marks the source's active call; other numbers are inactive results; i = inactive; . = no result given.
no.	molecule	RGS16-Gao	PKD1 inh	Insulin prom inh	Insulin prom inh cell count	HSV augment	HSV augment primary fold	GALR2 agonist
1	CCOC(=O)N1CCC(Nc2ccc3nnc(-c4ccccc4)n3n2)CC1	105	-6	.	.	i	0.8	-0.3
2	COCCCNC(=S)N1CCN(C(=O)C(=O)Nc2ccc(C(=O)OC)cc2)CC1	117	-12	0	125	i	1	-1.5
3	Cc1cc(C(=O)N2CCC(C(=O)O)CC2)c(C)o1	102	.	.	.	i	1	.
4	COC(=O)NNC(=S)Nc1cc(OC)ccc1OC	104	-5	43	49	i	0.9	-1.4
5	CCOC(=O)c1cn(-c2ccccc2)nc1-c1ccncc1	107	-18	.	.	i	0.72	0.4
6	COc1cc(C(=O)OCC(=O)NCc2ccc(F)cc2)cc(NC(=O)c2cccs2)c1OC	98	-8	-57	128	i	0.87	-0.6
7	O=C(Cn1cccc1C(=O)c1ccccc1)NCCCN1CCOCC1	102	4	7	68	i	0.97	-0.8
8	CN(CC(=O)Nn1cnnc1)S(=O)(=O)c1ccccc1	104	-6	25	132	i	0.92	-1.2
9	CN1CCN(C(=O)C2=C[C@@H](c3ccc(C(F)(F)F)cc3)C[C@@H](OCCCCO)O2)CC1	100	-1	.	.	i	0.89	.
10	Cc1cccc(NC(=O)Cc2noc3ccccc23)c1C	115	-6	0	100	i	0.97	-2.0
11	O=C(NNc1nc2cc3c(cc2s1)OCO3)c1ccc(F)cc1	.	8	0	98	.	.	-0.9
12	Cc1cc(NS(=O)(=O)c2ccc(NC(=O)/C=C/c3ccc(C)o3)cc2)nc(C)n1	97	-3	.	.	i	1.2	.
13	Cc1ccccc1C(=O)c1cccn1CC(=O)N1CCCCCC1	100	5	0	168	i	0.89	-2.2
14	CCc1cccc(C)c1NC(=O)CSc1nnc(CCCOc2ccc(Cl)cc2Cl)n1C	111	-11	-3	89	i	0.91	1.6
15	CN1CCC(=C2c3ccccc3C=Cc3ccccc32)CC1	100	11	33	154	i	0.74	-0.2
16	O=C(NC(=S)Nc1ccc(N2CCOCC2)cc1)c1cccc([N+](=O)[O-])c1	114	3	40	109	i	0.72	-1.6
17	COc1ccc(OC)c(CNC(=O)Cc2c(C(=O)O)[nH]c3ccc(Cl)cc23)c1	92	0	78*	94*	i	0.86	.
18	Cc1c(NC(=O)c2nn3c(C(F)(F)F)cc(-c4ccccc4)nc3c2Br)c(=O)n(-c2ccccc2)n1C	99	1	12	174	i	0.85	-0.4
19	Cc1cc(C)c2nc(C(F)(F)F)nc(N3CC(C)OC(C)C3)c2c1 (stereo unspecified)	97	6	-15	110	.	.	0.5
20	O=S(=O)(NCc1ccccc1)c1ccc(S(=O)(=O)N(Cc2cccs2)CC2CCCO2)cc1 (stereo unspecified)	97	-1	-44	66	i	1.3	-0.1
21	COc1ccc(NC(=O)c2ccccc2CC[N+](=O)[O-])cc1	100	-7	-7	78	i	1	.
22	O=C(Nc1ccccc1N1CCN(c2ccc(F)cc2)CC1)c1ccccc1	91	0	-58	136	i	1	-0.3
23	O=c1cc(O)nc(SC23CC4CC(CC(C4)C2)C3)[nH]1	97	-1	.	.	i	0.7	-1.0
24	Cc1cc(C(=O)N/N=C/c2cccc([N+](=O)[O-])c2)c(C)n1-c1ccccc1	98	-12	16	113	i	0.83	-0.1
25	CC(=O)N1CCCC1(C(=O)O)c1ccccc1 (stereo unspecified)	98	.	.	.	i	1.1	.
26	COc1cc(C(=O)NCc2ccc(-n3cccc3)cc2)cc(OC)c1OC	112	-4	.	.	.	.	.
27	COc1ccc(/C=N/Nc2nc(=O)[nH]nc2C)cc1OC	96	.	.	.	i	0.94	.
28	COc1ccc(CCNC(=O)Cc2cccs2)cc1OC	100	-3	.	.	i	1.1	.
29	C=CCOC(=O)C1=C(C)NC(=O)NC1/C=C/c1ccccc1OC (stereo unspecified)	105	-2	23	108	.	.	-1.2
30	O=[N+]([O-])c1ncn(C23CC4CC(CC(C4)C2)C3)n1	121	.	.	.	i	1.1	.

# Results in PKD1 inh and Insulin prom inh cell count, for some of the entries so far:
item	Structure	PKD1 inh	Insulin prom inh cell count
7	O=C(Cn1cccc1C(=O)c1ccccc1)NCCCN1CCOCC1	4	68
8	CN(CC(=O)Nn1cnnc1)S(=O)(=O)c1ccccc1	-6	132
9	CN1CCN(C(=O)C2=C[C@@H](c3ccc(C(F)(F)F)cc3)C[C@@H](OCCCCO)O2)CC1	-1	.
10	Cc1cccc(NC(=O)Cc2noc3ccccc23)c1C	-6	100
11	O=C(NNc1nc2cc3c(cc2s1)OCO3)c1ccc(F)cc1	8	98

# (continued)
no.	molecule	RGS16-Gao	PKD1 inh	Insulin prom inh	Insulin prom inh cell count	HSV augment	HSV augment primary fold	GALR2 agonist
31	CCC/C(=N\NC(=O)CNC(=O)/C=C/c1ccco1)c1ccccc1	101	-5	7	74	i	0.99	-0.5
32	CCN(CC)Cc1c[nH]c2c(C(=O)OC)cccc12	107	-3	.	.	i	0.86	-1.6
33	O=C(O)c1cccnc1-c1ncccc1C(=O)O	99	-9	64	93	i	1	-0.6
34	Cc1nn(C)c(C)c1NC(=O)c1ccc(Cl)cc1	97	1	48	60	i	1.1	-1.4
35	COc1ccc(CCNC(=O)c2nnn(-c3cccc(C)c3)c2N)cc1OC	103	-4	-46	103	i	0.9	-1.3
36	CC1CC(C)CN(C(=O)c2ccc3c(c2NCCO)C(=O)c2ccccc2C3=O)C1 (stereo unspecified)	104	9	39	63	i	0.91	-0.8
37	Cc1cccc(C)c1NC(=S)N/N=C/c1c(Cl)cccc1Cl	101	0	.	.	i	0.98	.
38	CC1(C)CC(=O)C(=Cc2cn(CCC#N)nc2-c2ccc(Cl)cc2)C(=O)C1	97	-2	.	.	i	0.61	0.0
39	Cc1ccc(C(=O)OCC(=O)Nc2ccccc2N2CCOCC2)cc1	101	-1	38	135	i	0.8	-0.7
40	COc1cc(C(=O)Nc2ccc(OCC(=O)O)cc2)cc(OC)c1OC	105	-14	23	75	i	0.99	-0.6
41	Clc1cccc(Nc2nc(-c3ccncc3)cs2)c1	101	2	-33	108	i	0.71	.
42	Cc1ccc(C(=O)N/C(=C\c2ccc(Cl)cc2)C(=O)NCC2CCCO2)cc1 (stereo unspecified)	104	-4	27	101	i	0.8	-0.9
43	c1ccc(C2=Nn3c(nnc3-c3ccco3)SC2)cc1	93	-5	16	107	i	1.1	.
44	C=CCn1c(=NC(=O)c2cccs2)sc2cc(NC(C)=O)ccc21	152	-3	.	.	.	.	.
45	NC(=O)C1CC(O)CN1c1nc(CN2CCOCC2)nc2scc(-c3ccccc3)c12 (stereo unspecified)	101	4	0	57	i	0.73	-1.4
46	COc1ccccc1NC1=CC(=O)CC(c2ccccc2)C1 (stereo unspecified)	115	-12	-22	104	i	0.65	-0.6
47	O=C1C2CC=CCC2C(=O)N1Nc1ccccc1 (stereo unspecified)	104	4	.	.	i	0.96	.
48	COc1ccc(N2C(=O)NC3CC2(C)Oc2ccccc23)cc1 (stereo unspecified)	104	10	-57	95	i	0.96	.
49	Nc1nc(-c2ccccc2)cn1N	142	7	-9	54	i	0.87	-1.1
50	COC(=O)C1=C(C)Nc2c(c(=O)n(C)c(=O)n2C)C1c1cccc(O)c1 (stereo unspecified)	99	.	.	.	i	0.87	.
51	Cc1cc(C)c(S(=O)(=O)c2ccccc2C(=O)O)c(C)c1	116	-2	13	71	i	0.99	-1.3
52	CC(C)CNC(=O)CSc1nnc(-c2ccc(Cl)cc2)n1N	101	-2	.	.	i	0.93	.
53	O=C(Nc1cc(S(=O)(=O)N2CCOCC2)ccc1N1CCOCC1)c1cccc(S(=O)(=O)N2CCCCC2)c1	97	.	.	.	i	1	.
54	CC(=O)c1cccc(S(=O)(=O)NCCC(=O)O)c1	104	0	.	.	i	0.76	.
55	COc1ccc(-n2nc(C(=O)NCC(=O)NCC3CCCO3)c3ccccc3c2=O)cc1Cl (stereo unspecified)	106	-1	-7	161	i	0.89	1.3
56	Cc1cc(NC(=O)COc2ccc(N(C)S(=O)(=O)c3ccccc3)cc2)no1	96	-7	79*	79*	i	1.1	-4.0
57	CCNC(=S)NS(=O)(=O)c1ccc(F)cc1	101	8	.	.	i	0.85	.
58	COc1ccc(-c2cn[nH]c2C)cc1OC	101	-2	-29	138	i	1.1	.
59	Cc1cc2nc(N)sc2cc1[N+](=O)[O-]	98	26	12	126	i	1.1	-1.7
60	O=C(NC1CCCCC1)C(c1ccccc1)N1CCOCC1 (stereo unspecified)	107	-4	-43	167	i	0.98	-3.9

# Full records from above. Order of values: RGS16-Gao | PKD1 inh | Insulin prom inh | Insulin prom inh cell count | HSV augment | HSV augment primary fold | GALR2 agonist
# O=C(NC1CCCCC1)C(c1ccccc1)N1CCOCC1 (stereo unspecified) is listed with 107 | -4 | -43 | 167 | i | 0.98 | -3.9
# CCC/C(=N\NC(=O)CNC(=O)/C=C/c1ccco1)c1ccccc1 is listed with 101 | -5 | 7 | 74 | i | 0.99 | -0.5
# Nc1nc(-c2ccccc2)cn1N is listed with 142 | 7 | -9 | 54 | i | 0.87 | -1.1

# Continued.
no.	molecule	RGS16-Gao	PKD1 inh	Insulin prom inh	Insulin prom inh cell count	HSV augment	HSV augment primary fold	GALR2 agonist
61	CN(C(=O)COC(=O)c1nc(Cl)c(Cl)c(Cl)c1Cl)C1CCS(=O)(=O)C1 (stereo unspecified)	115	-3	.	.	i	0.66	.
62	CCOc1c(Br)cc(C(N)=O)cc1OCc1ccccc1	106	-14	54	124	i	0.79	-0.5
63	CN1C(=O)CC(N2CCC(C(N)=O)(N3CCCCC3)CC2)C1=O (stereo unspecified)	103	-5	5	77	i	0.95	-1.7
64	COc1cc(C(=S)N2CCCC2)ccc1OS(=O)(=O)c1ccc(NC(C)=O)cc1	103	2	6	163	i	0.95	.
65	Cc1cc(C(=O)NCCN2CCOCC2)ccc1[N+](=O)[O-]	92	2	-83	65	i	0.76	.
66	COc1ccc(NC(=O)c2cc(C(C)C)on2)c(OC)c1	98	-10	.	.	i	0.93	-1.6
67	Cc1ccccc1-c1nnc(SCC(=O)Nc2cccc(C)c2C)o1	95	5	-10	102	i	0.98	-1.3
68	Cc1ccc(Cn2ccc(NC(=O)c3cc(C(C)C)on3)n2)cc1	47	-21	.	.	i	0.86	-1.9
69	BrC(=C\c1ccccc1)/C=N/Nc1ccc2nncn2n1	101	.	.	.	i	0.8	.
70	CCC1Oc2ccc(C)cc2N(CC(=O)NCc2ccccc2OC)C1=O (stereo unspecified)	106	0	6	89	i	0.67	-0.8
71	Cc1cc(C)cc(N(CC(=O)Nc2c(C)n(C)n(-c3ccccc3)c2=O)S(C)(=O)=O)c1	-28*	-6	9	186	i	0.99	-0.5
72	O=C1c2cccc(OCC(=O)N3N=C(c4cccs4)CC3c3ccc(F)cc3)c2CCN1Cc1cccnc1 (stereo unspecified)	64	-6	.	.	i	1	0.6
73	CC(=O)OC[C@H]1O[C@@H](O/N=C/[C@@H](C)[C@H](OCc2ccccc2)C(C)C)[C@H](OC(C)=O)[C@@H](OC(C)=O)[C@@H]1OC(C)=O	71	-10	-19	68	.	.	-1.4
74	Cc1cc(C)c(NC(=O)Cn2cc3c(n2)CCCC3)c(C)c1	101	-12	-30	111	i	1	-3.4
75	Cc1cc(C(F)(F)F)nc(SCC(=O)NC2CC3CCC2C3)n1 (stereo unspecified)	103	2	-431	48	i	0.93	-1.0
76	Cc1cc(OCC(=O)Nc2cccc(S(=O)(=O)NC3=NCCCCC3)c2)ccc1Cl	104	3	.	.	i	1	-0.2
77	CCC(=O)c1ccc(N2CCN(C(=O)c3cc([N+](=O)[O-])ccc3N3CCN(C)CC3)CC2)c(F)c1	100	5	-10	74	i	0.96	-0.5
78	CC(=O)OCc1c(C(F)(F)F)nn(C)c1Oc1ccccc1	100	6	.	.	i	0.9	-3.1
79	Cc1ccc(C(=O)OCc2nnc(-c3ccc(Br)cc3)o2)cc1	91	-5	0	71	i	0.9	.
80	OC(C#CCN1CCOCC1)(c1ccccc1)C1CCCCC1 (stereo unspecified)	99	-7	-13	156	i	1.2	-2.0
81	COc1cccc(-c2nc(C(N)=O)c3[nH]c(=O)n(-c4cccc(Cl)c4)c3n2)c1OC	101	14	43	84	i	0.82	0.6
82	CCCCNC(=O)CC1Nc2ccccc2NC1=O (stereo unspecified)	101	-3	.	.	i	0.92	-0.3
83	CCCOc1ccc(S(=O)(=O)NCCN2CCOCC2)c2ccccc12	139	9	6	103	i	0.88	-3.0
84	O=C(/C=C/c1cccc(F)c1)Nc1cc(S(=O)(=O)N2CCOCC2)ccc1N1CCCC1	94	-5	-11	102	i	0.93	0.1
85	CCn1c(Cc2ccccc2)nnc1SCc1ccc([N+](=O)[O-])cc1	103	-10	-85	39	i	0.94	-2.3
86	Cc1ccc(C)c(/C(O)=C2\C(=O)C(=O)N(CCCn3ccnc3)C2c2ccncc2)c1 (stereo unspecified)	97	1	3	127	i	1.1	-1.6

# Screens as filed in PubChem BioAssay.
